High-throughput results (PubChem)
UCH37 inh = inhibitors of human UCH37 deubiquitinase, primary screen, biochemical, Ub-AMC cleavage, fluorescence. Ubiquitin carboxyl-terminal hydrolase isozyme L5 (Homo sapiens), Q9Y5K5. inhibition, % (no concentration beside the values). purified proteasome/UCH37. actives 0.33% (n = 330,000). AID 588478, 2011;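 active = mean of two replicates above 20%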;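 note: 0% = compound-free wells with enzyme and 100% = wells lacking proteasome; stock transfer was 100 nL into about 20 µL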
Target sequence (Q9Y5K5 whole entry, looked up): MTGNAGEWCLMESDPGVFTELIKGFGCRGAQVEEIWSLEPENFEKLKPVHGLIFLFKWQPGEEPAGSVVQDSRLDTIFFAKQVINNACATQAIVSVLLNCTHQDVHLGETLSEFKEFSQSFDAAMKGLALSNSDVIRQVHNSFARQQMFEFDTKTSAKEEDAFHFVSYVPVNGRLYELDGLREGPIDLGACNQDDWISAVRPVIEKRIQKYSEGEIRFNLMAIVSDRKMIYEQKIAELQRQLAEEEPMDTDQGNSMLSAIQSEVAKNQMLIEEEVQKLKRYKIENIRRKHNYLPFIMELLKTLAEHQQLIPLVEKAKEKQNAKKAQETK
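assay system = human UCH37 enzyme supplied as purified proteasome complex | amount = proteasome at 0.15 nM in the dispensed enzyme solution | schedule = 30 min compound-proteasome preincubation then 25 min substrate reaction, room temperature | measured by = fluorescence, ex 355 nm, em 460 nm | benchmarks = no-proteasome wells (full inhibition) and compound-free wells (no inhibition)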
B2AR ag = beta2AR agonists driving receptor internalization, primary screen, cell-based, FAP fluorogen, flow cytometry | response, % (no concentration beside the values) | AID 504454, 2011 | Beta-2 adrenergic receptor (Homo sapiens), P07550 | actives 0.43% (n = 340,000) | Am2.2-beta2AR cells; reference of the scale not given here;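 active = response above a set limit, near 3 SD of response in nonfluorescent compounds, cut at about 42% in these data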;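 note: stock transfer was 100 nL into about 11 µL; a reference agonist was the positive control; negative values mostly stem from fluorescent compounds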
Target sequence (P07550 whole entry, looked up): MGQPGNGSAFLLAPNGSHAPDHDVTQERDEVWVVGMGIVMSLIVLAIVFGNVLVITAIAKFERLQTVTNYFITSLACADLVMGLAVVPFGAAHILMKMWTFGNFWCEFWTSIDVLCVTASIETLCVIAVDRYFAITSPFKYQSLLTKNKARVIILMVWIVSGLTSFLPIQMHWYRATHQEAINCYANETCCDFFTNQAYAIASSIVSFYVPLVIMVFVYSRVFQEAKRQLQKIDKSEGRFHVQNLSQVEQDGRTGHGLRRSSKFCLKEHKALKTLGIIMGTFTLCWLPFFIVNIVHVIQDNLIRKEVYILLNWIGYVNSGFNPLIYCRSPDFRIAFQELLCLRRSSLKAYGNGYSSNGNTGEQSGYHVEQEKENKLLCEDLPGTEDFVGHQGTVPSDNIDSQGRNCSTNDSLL
Active calls of the source: *; x = not tested or not shown. Some of the compounds tested; count on the stated rates, not on these rows.

nr | UCH37 inh | B2AR ag | Molecule
1 | x | -47 | O=c1/c(=C/c2ccc(O)c([N+](=O)[O-])c2)sc2nc3ccccc3n12
2 | x | 6 | Cc1ccc(C)c(N2CCN(c3ncnc4c3cnn4-c3ccccc3)CC2)c1
3 | x | -3 | CCc1cc2c(SCC(=O)Nc3ccc(Cl)cn3)ncnc2s1
4 | x | -18 | O=C(Sc1n[nH]c(=O)[nH]c1=O)c1ccccc1
5 | x | -8 | CCN1CCN(c2nc(C)nc3c2sc(=S)n3C)CC1
6 | x | 3 | C[C@H](O)[C@@H]1C(=O)N2CCc3ccc(N4CCOCC4)cc3[C@@H]2C[C@@H]1N(C)C(=O)C(C)(C)C
7 | x | -8 | CCn1c(N)cc(=O)[nH]c1=S
8 | x | -8 | O=c1[nH]cnc(CN2CCCCC2)c1O
9 | x | -2 | Cc1ccc(C2NC(=O)c3ccccc3N2)c(C)c1 (stereo not given)
10 | x | 4 | CC(C)(C)OC(=O)N1CCC(C(=O)Nc2cccc(C(=O)N3CCCC3)c2)CC1
11 | x | -7 | Oc1ccccc1C=NN=CC=Cc1ccccc1
12 | x | -1 | CCOc1ccccc1C=NN=Cc1ccccc1O
13 | x | 3 | CC(=O)c1c(O)cc(O)cc1O
14 | x | -16 | CC(=O)C1=C(C)N=c2s/c(=C/c3ccc4c(c3)OCO4)c(=O)n2C1c1ccc(N(C)C)cc1 (stereo not given)
15 | x | 25 | CC(C)Cc1ccc(C(C)/C=C2/CCC(CN3CCCCC3)C2=O)cc1 (stereo not given)
16 | x | 6 | C[C@]12c3[nH]c4cc(-c5ccco5)ccc4c3CCN1C(=O)[C@@H](CC(=O)NCCCn1ccnc1)C[C@@H]2C(=O)N1CCOCC1
17 | x | -7 | CCOC(=O)C1(Cc2ccccc2)CCCCCC1=O (stereo not given)
18 | x | -10 | O=C(O)C1=C[C@@H](O)[C@@H](O)[C@H](O)C1
19 | x | 8 | c1ccc2oc(-c3ccc(Nc4nc(N5CCOCC5)nc(N5CCOCC5)n4)cc3)nc2c1
20 | x | -10 | N#CC1=CC2CN(Cc3ccccc3)C1C1C(=O)N(c3ccccc3)C(=O)C21 (stereo not given)
21 | x | -2 | N#CC1(c2cccc(Br)c2)C(=O)Nc2ccccc21 (stereo not given)
22 | x | 1 | O=C1Nc2ccccc2C1=Nc1ccccc1-c1ccccc1
23 | x | -8 | COc1ccc(OC)c(C2C/C(=N/O)C(C)C(c3cc(OC)ccc3OC)N2)c1 (stereo not given)
24 | x | -4 | CC(=C1SC(=S)NC1=O)c1ccccc1
25 | x | 10 | COc1ccc(CNC(=O)COC(=O)C2=Cc3ccccc3OC2)cc1

Values by screen from the list:
Entries 12 to 21 in B2AR ag, in turn: -1, 3, -16, 25, 6, -7, -10, 8, -10, -2

The listing continues:
nr | UCH37 inh | B2AR ag | Molecule
26 | x | 7 | COc1ccc(C2=Nc3ccccc3C2(O)CCN2C(=O)c3ccccc3C2=O)cc1 (stereo not given)
27 | x | 16 | COc1ccc2c(c1)N(C[C@H](C)CN(C)C)c1ccccc1S2
28 | x | -10 | COc1ccc(CCNC(=O)Cc2cc3c(cc2[N+](=O)[O-])OCO3)cc1OC
29 | x | -8 | CCCCCC(O)CCCC(=O)O (stereo not given)
30 | x | 6 | CCCCN1CC(COCc2ccccc2)Oc2cc(Br)ccc2S1(=O)=O (stereo not given)
31 | x | 2 | COc1cccc(C(CC(=O)NCC2CCCO2)NS(=O)(=O)c2ccc(C)cc2)c1OC (stereo not given)
32 | x | -3 | O=S(=O)(NC(CO)Cc1ccccc1)c1cc(Cl)ccc1F (stereo not given)
33 | x | 0 | CC(C)(O)CN(C(=O)c1ccc([N+](=O)[O-])cc1)C1CCCC1
34 | x | 34 | COc1cc(OC)c2c(-c3cccc(-c4ccc(OC)c(OC)c4)c3)cc(=O)oc2c1
35 | x | 0 | Fc1cccc(F)c1[B-](F)(F)F
36 | x | -1 | CCOc1ccc(C=NNC(=O)c2cccc3ccccc23)cc1OCC
37 | x | -1 | O=[N+]([O-])c1cccc(COc2cccc(CN3CCCC3)c2)c1
38 | x | 0 | Nc1ccn(C2OC(COC(=O)C34CC5CC(CC(C5)C3)C4)C(O)C2O)c(=O)n1 (stereo not given)
39 | x | 2 | CCOC(=O)C1=C(C)c2ccccc2OC1(CC)C(=O)OCC (stereo not given)
40 | x | 2 | CCc1nc(SCC(=O)Nc2nnc(C(C)C)s2)n[nH]1
41 | x | -5 | NC(=S)NN=C1CCCC(C(F)(F)F)C1 (stereo not given)
42 | x | 0 | COc1cc2c(cc1OC)C(Cc1ccccc1[N+](=O)[O-])=NCC2
43 | 1.5 | x | C=CCN1C(=O)C(Cc2ccc(F)cc2)SC1=NN=Cc1ccco1 (stereo not given)
44 | 8.1 | x | C/C(C=NNC(=O)CN1CCN(Cc2ccc(Cl)cc2)CC1)=C\c1ccco1
45 | 5.5 | x | COc1ccccc1/C=C/C=NN1CCN(Cc2ccccc2)CC1
46 | 1.8 | x | Fc1ccc(NN=C2CCSc3sccc32)c(F)c1
47 | 0.0 | x | COc1ccc(N(CC(=O)NN=Cc2cccnc2)S(=O)(=O)c2ccccc2)c(OC)c1
48 | 2.4 | x | CCOc1ccccc1C=NN1CCN(Cc2ccccc2)CC1
49 | 3.5 | x | CC(=NNC(=O)c1c(Br)c(C)nn1C)c1cccc(NC(=O)c2ccccc2C)c1
50 | 7.0 | x | Cc1cccc(C=NNC(=O)c2cc(Br)ccc2OCc2ccccc2)n1

Copied from the entries so far for reference:
nr | UCH37 inh | B2AR ag | Molecule
19 | x | 8 | c1ccc2oc(-c3ccc(Nc4nc(N5CCOCC5)nc(N5CCOCC5)n4)cc3)nc2c1
20 | x | -10 | N#CC1=CC2CN(Cc3ccccc3)C1C1C(=O)N(c3ccccc3)C(=O)C21 (stereo not given)
21 | x | -2 | N#CC1(c2cccc(Br)c2)C(=O)Nc2ccccc21 (stereo not given)
22 | x | 1 | O=C1Nc2ccccc2C1=Nc1ccccc1-c1ccccc1
23 | x | -8 | COc1ccc(OC)c(C2C/C(=N/O)C(C)C(c3cc(OC)ccc3OC)N2)c1 (stereo not given)
24 | x | -4 | CC(=C1SC(=S)NC1=O)c1ccccc1
25 | x | 10 | COc1ccc(CNC(=O)COC(=O)C2=Cc3ccccc3OC2)cc1
26 | x | 7 | COc1ccc(C2=Nc3ccccc3C2(O)CCN2C(=O)c3ccccc3C2=O)cc1 (stereo not given)
27 | x | 16 | COc1ccc2c(c1)N(C[C@H](C)CN(C)C)c1ccccc1S2
28 | x | -10 | COc1ccc(CCNC(=O)Cc2cc3c(cc2[N+](=O)[O-])OCO3)cc1OC
29 | x | -8 | CCCCCC(O)CCCC(=O)O (stereo not given)
30 | x | 6 | CCCCN1CC(COCc2ccccc2)Oc2cc(Br)ccc2S1(=O)=O (stereo not given)
31 | x | 2 | COc1cccc(C(CC(=O)NCC2CCCO2)NS(=O)(=O)c2ccc(C)cc2)c1OC (stereo not given)
32 | x | -3 | O=S(=O)(NC(CO)Cc1ccccc1)c1cc(Cl)ccc1F (stereo not given)
33 | x | 0 | CC(C)(O)CN(C(=O)c1ccc([N+](=O)[O-])cc1)C1CCCC1
34 | x | 34 | COc1cc(OC)c2c(-c3cccc(-c4ccc(OC)c(OC)c4)c3)cc(=O)oc2c1
35 | x | 0 | Fc1cccc(F)c1[B-](F)(F)F
36 | x | -1 | CCOc1ccc(C=NNC(=O)c2cccc3ccccc23)cc1OCC
37 | x | -1 | O=[N+]([O-])c1cccc(COc2cccc(CN3CCCC3)c2)c1
38 | x | 0 | Nc1ccn(C2OC(COC(=O)C34CC5CC(CC(C5)C3)C4)C(O)C2O)c(=O)n1 (stereo not given)
39 | x | 2 | CCOC(=O)C1=C(C)c2ccccc2OC1(CC)C(=O)OCC (stereo not given)
40 | x | 2 | CCc1nc(SCC(=O)Nc2nnc(C(C)C)s2)n[nH]1
41 | x | -5 | NC(=S)NN=C1CCCC(C(F)(F)F)C1 (stereo not given)
42 | x | 0 | COc1cc2c(cc1OC)C(Cc1ccccc1[N+](=O)[O-])=NCC2
43 | 1.5 | x | C=CCN1C(=O)C(Cc2ccc(F)cc2)SC1=NN=Cc1ccco1 (stereo not given)
44 | 8.1 | x | C/C(C=NNC(=O)CN1CCN(Cc2ccc(Cl)cc2)CC1)=C\c1ccco1
45 | 5.5 | x | COc1ccccc1/C=C/C=NN1CCN(Cc2ccccc2)CC1
46 | 1.8 | x | Fc1ccc(NN=C2CCSc3sccc32)c(F)c1
47 | 0.0 | x | COc1ccc(N(CC(=O)NN=Cc2cccnc2)S(=O)(=O)c2ccccc2)c(OC)c1
48 | 2.4 | x | CCOc1ccccc1C=NN1CCN(Cc2ccccc2)CC1

Further results follow.
nr | UCH37 inh | B2AR ag | Molecule
51 | -0.3 | x | Cc1ccc(S(=O)(=O)N=C2CN(C)C(=O)N2C)cc1
52 | 4.3 | x | C(=Nn1cnnc1)c1ccc(-c2ccccc2)cc1
53 | 1.5 | x | O=C(CNC(=O)C(c1ccccc1)c1ccccc1)NN=Cc1ccc(C(=O)O)cc1
54 | 1.9 | x | Cn1cccc1CC(=O)NN=Cc1cc([N+](=O)[O-])ccc1Cl
55 | 4.7 | x | COc1ccc(C=NNC(=O)C2C3CCCCC32)cc1OC (stereo not given)
56 | 13 | x | N#CC(=NNc1c(Cl)cccc1Cl)C(=O)NN
57 | 7.8 | x | O=C(NN=Cc1ccc(-c2ccc([N+](=O)[O-])cc2)o1)C(O)c1ccccc1 (stereo not given)
58 | 5.1 | x | C(=Nc1nccs1)c1cccnc1
59 | 7.3 | x | COc1c(O)ccc(C=NNC(=O)c2ccc3c(c2)OCO3)c1[N+](=O)[O-]
60 | 3.4 | x | CC(=NNC(=O)c1ccccc1)c1nc2ccccc2n1C
61 | 4.3 | x | COCc1cc(=O)[nH]c(N=C(N)Nc2cccc(Cl)c2)n1
62 | 1.5 | x | O=C(NN=Cc1cc([N+](=O)[O-])ccc1N1CCOCC1)c1ccccn1
63 | 4.3 | x | NC(CS(=O)(=O)c1ccc(F)cc1)=NO
64 | 3.3 | x | CCCCC(=O)NN=C(C)CC(=O)Nc1ccccc1Br
65 | 4.4 | x | COc1ccc(C=NOCc2ccc(Br)cc2)c(OC)c1
66 | 3.7 | x | CC1(C)Cc2c(sc(N=CN3CCOCC3)c2C#N)C(C)(C)N1
67 | 6.6 | x | O=C(NN=Cc1cccnc1)c1ccccc1OCc1cccc(Br)c1
68 | 0.8 | x | CC(=NOC(=O)C1CC1)C1CC1c1ccc(F)cc1 (stereo not given)
69 | 2.2 | x | Cc1[nH]n(-c2ccccc2)c(=O)c1C=NO
70 | 1.9 | x | CCOc1ccccc1C=NNC(=O)c1nnn(-c2nonc2N)c1CN1CCCC1
71 | 2.7 | x | O=C(CN1CCCCC1)NN=Cc1ccccc1Br
72 | 3.2 | x | O=C(NN=Cc1ccc(O)c(O)c1)c1cccc(S(=O)(=O)N2CCCCC2)c1
73 | -1.6 | x | Brc1cccc(C=NNc2nc(N3CCCCC3)nc(N3CCCCC3)n2)c1
74 | 9.1 | x | Cc1c(C(=O)NN=Cc2cccs2)nc2ccccn12
75 | 3.8 | x | CC(=O)Nc1ccc(S(=O)(=O)N(C)CC(=O)NN=Cc2ccncc2)cc1
76 | 5.6 | x | Cc1nn(-c2ccccc2)c(N2CCCC2)c1C=NNC(=O)c1cc(-c2cccnc2)nc2ccccc12
77 | 0.8 | x | Cc1cc(C=Nn2cnnc2)c(C)n1-c1cccc(Cl)c1
78 | 1.4 | x | CC(C)c1ccc(C(=O)NN=Cc2cccc(Cl)c2Cl)cc1
79 | 2.7 | x | COc1ccc(C=NNC(=O)c2ccn[nH]2)cc1CN1CCOCC1
80 | 2.6 | x | CCC(=NNC(=O)CSCc1ccccc1Cl)c1ccc2c(c1)OCCO2
81 | 1.5 | x | CCNc1nc(NC(C)C)nc(Oc2ccc(C=NO)cc2)n1
